Sa ugtP lethal – growth inhibition of ugtP-null S. aureus, primary screen, RN4220 ugtP deletion, OD600; 16 h; some inactives read as strong as hits; growth inhibition, % (test concentration not listed); 0.54% of 330,000 active; AID 1259309, 2017;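 active = z-score under -3 and OD600 up to 0.15 on both plates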;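 note: plate controls were untreated wells for no effect and antibiotic for full effect; wells of about 80 µL received 100 nL stock; the first replicate is given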
RN4220 kill – growth inhibition of S. aureus RN4220, primary screen, OD600; 16 h; inhibition, % (test concentration not listed); 0.33% of 330,000 active;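 active = z-score of -3 or lower and OD600 up to 0.18 on both plates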;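 note: plate controls were untreated cells for no effect and reference antibiotic for full effect; stock transfer was 100 nL into about 80 µL; one replicate is shown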
Mtb hypoxia inh – PubChem AID 1159583 | M. tuberculosis hypoxia-regulated fluorescent reporter, fluorescence | 0.1% of 300,000 active | fluorescence inhibition, % (test concentration not listed);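 active = 35 to 45% if threefold the growth effect, above 45% if 1.5-fold the growth effect; inactive = the rest, general growth blockers included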;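 note: wells of about 50 µL received 100 nL stock; 0% = vehicle wells and 100% = reference inhibitor wells; whole bacteria with a GFP reporter of the hypoxia response; strong numbers were not always called active; many hits fall short of the cut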
BJeLR lethal – MLPCN primary cell-based screen for lethality selective to Ras in HRASV12 cells | BJeLR (HRASV12) viability, CellTiter-Glo ATP luminescence, 48 h; reference of the scale not given here | inhibition, % (concentration not given with the values) | 0.17% of 300,000 active;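 active = replicate mean above 50%; inconclusive = above 50% but judged a plate artefact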;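 note: 50 nL library stock added to about 25 µL; numbers are from one replicate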
PrP 5UTR inh – inhibition of PrP 5' UTR reporter expression. cell-based PrP 5' UTR mRNA reporter, plate reader. AID 488862, 2010. 0.35% of 340,000 active. inhibition, % (test concentration not listed);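 active = every replicate at 50% or more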;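 note: 0 = median of the neutral control wells; tested in H4 reporter cells; numbers are from one replicate; inactives centre near -14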
Bead autofluor – compound fluorescence in toxin protease inhibitor counterscreen | fluorescence intensity (no concentration beside the values) | AID 624483 | 3.1% of 360,000 active | compound autofluorescence counterscreen, microsphere flow cytometry; stronger effect = higher value;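 active = at least 3 SD above the mean of all compounds, about 16000 in these data; inconclusive = too few beads counted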;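 note: 100 nL of 1 mM stock went into each well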
Mtb hypoxia inh growth – further read-out of Mtb hypoxia inh, marked with its call; growth inhibition, %; measured here: M. tuberculosis growth (absorbance);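 0% = vehicle and 100% = reference antibiotic; read after six days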
The depositor's hits bear a star; ? = inconclusive; / = no result given.

SMILES	BJeLR lethal	Sa ugtP lethal	PrP 5UTR inh	Mtb hypoxia inh	Bead autofluor	Mtb hypoxia inh growth	RN4220 kill
C=CCOc1ccc(C2CC(C)=NN2c2ccccc2)cc1 (centres undefined)	-1	34	-14	-7	2681	1	-2.9
COc1cccc(NC(=O)CN(C)CC(=O)Nc2ccccc2-c2ccccc2)c1	-4	3	-27	-3	4611	4	12
CCOc1ccccc1NC(=S)N1CCN(c2ccc(O)cc2)CC1	4	1	-20	0	4010	2	2.3
CC1(C)CC(=O)C(C=NCC2CCN(C(=S)Nc3cccc(Cl)c3)CC2)=C(O)C1	-15	2	-21	0	3243	2	-1.5
O=C(CCN1CCOCC1)Nc1ccc2c(c1)N(C(=O)CN1CCOCC1)c1ccccc1CC2	-3	17	-20	8	10846	6	5.5
O=C(CSc1n[nH]c(-c2cccnc2)n1)Nc1ccc([N+](=O)[O-])cc1	-27	6	-8	5	5418	3	1.4
O=C(CCC1CCCC1)NCCS(=O)(=O)N1CCN(c2ccc(F)cc2)CC1	7	0	-14	0	4263	5	3.5
Cc1ccc(C(C)C)c(OCC(=O)Nc2ccc3c(c2)nc(CCN2CCCCC2)n3C)c1	14	/	-6	/	5681	/	/
CCOC(=O)C(O)(CC(=O)Nc1ccc(Cl)cc1Cl)C(F)(F)F (centres undefined)	-9	-6	-17	3	4143	4	3.4
CC(C)C(=O)Nc1ccc(C(=O)NNC(=O)c2ccco2)cc1	-9	9	-16	7	15216	4	-2.0
CCCCOC(=O)c1ccc(NC(=O)c2nn(C)cc2Br)cc1	9	8	-26	8	4592	7	2.5
O=C(CN1CCN(Cc2cccc3ccccc23)CC1)NCCc1ccccc1	4	0	-18	2	3930	3	7.5
O=C(Cn1ncc2c1-c1ccccc1OC2)N1CCN(Cc2ccccc2)CC1	8	10	-25	4	?	7	-0.9
Cc1nn(-c2ccccc2)cc1/C=N/NS(=O)(=O)c1ccccc1	-3	/	-14	/	2615	/	/
COc1ccccc1C1/C(=C(/O)c2ccc(C)cc2)C(=O)C(=O)N1CCN1CCOCC1 (centres undefined)	4	0	-18	-1	2555	2	3.1
Fc1ccccc1-c1n[nH]c(=S)n1C1CC1	12	/	-10	/	5377	/	/
CC1Cc2ccccc2N1C(=S)NC(=O)c1ccco1 (centres undefined)	-3	9	-23	10	4346	6	1.5
O=C(Cn1nnc2ccccc2c1=O)NCc1ccco1	-3	6	-18	/	2196	/	5.6
Cc1[nH]c(SCC(=O)Nc2cc(S(C)(=O)=O)ccc2Cl)nc1Cc1ccccc1	/	0	-6	1	3579	2	1.3
Cc1cn2c(N)c(C=C3C=C(Cl)C(=O)C(Cl)=C3)c(=O)nc2s1	-4	6	-34	-4	26112*	8	19
CC(=O)c1cccc(NC(=O)C(CC(C)C)NC(=O)C2CCCCC2)c1 (centres undefined)	1	-5	-7	-9	4365	6	1.7
COc1ccc(C(=O)Nc2sc(C(=O)N(C)C)c(C)c2C#N)cc1[N+](=O)[O-]	-6	5	-16	2	1954	-4	3.5
COc1ccc(CNCCc2c[nH]c3ccccc23)c(OC)c1C	-2	-3	14	5	3426	-3	3.0
O=C(c1ccc(Cl)c(S(=O)(=O)N2CCCC2)c1)N1CCN(Cc2ccccc2)CC1	/	-2	-12	-6	3867	6	0.5
C=CCOC(=O)C1=C[C@H](c2ccc(C(F)(F)F)cc2)[C@@H](CCCO)[C@H](OCC)O1	-8	/	3	/	3025	/	/
CSc1ncccc1C(=O)OCC(=O)N1CCc2ccccc21	/	7	-48	9	3565	14	5.3
COc1cccc(CNC(=O)CCCc2nnc3n(C)c(=O)c4sccc4n23)c1	-8	-5	-27	-4	/	-1	-4.0
Clc1cc(Cl)c(OCCCCn2cncn2)c(Cl)c1	-2	-5	-13	9	3913	2	4.4
O=C1CC(c2ccc(F)cc2)Cc2nc(NCc3ccco3)ncc21 (centres undefined)	4	8	-6	/	2515	/	1.2
O=c1cc([O-])[n+]2c3n1CCCN3CCC2	1	11	-16	11	7343	12	-1.6

Four compounds picked at random from those above:
SMILES	BJeLR lethal	Sa ugtP lethal	PrP 5UTR inh	Mtb hypoxia inh	Bead autofluor	Mtb hypoxia inh growth	RN4220 kill
O=C(CN1CCN(Cc2cccc3ccccc23)CC1)NCCc1ccccc1	4	0	-18	2	3930	3	7.5
CC1Cc2ccccc2N1C(=S)NC(=O)c1ccco1 (centres undefined)	-3	9	-23	10	4346	6	1.5
Cc1cn2c(N)c(C=C3C=C(Cl)C(=O)C(Cl)=C3)c(=O)nc2s1	-4	6	-34	-4	26112*	8	19
C=CCOc1ccc(C2CC(C)=NN2c2ccccc2)cc1 (centres undefined)	-1	34	-14	-7	2681	1	-2.9

Further records follow:
SMILES	BJeLR lethal	Sa ugtP lethal	PrP 5UTR inh	Mtb hypoxia inh	Bead autofluor	Mtb hypoxia inh growth	RN4220 kill
O=C1N=c2ccccc2=C1c1sc(NS(=O)(=O)c2ccccc2)nc1O	-2	-1	-22	12	4531	22	6.9
COC(=O)c1ccc(/C=N/Nc2nc(-c3ccc(C)cc3)cs2)cc1	13	/	-16	/	2189	/	/
CCN(CC)C(=O)C1CC(=O)OC12CCCCC2 (centres undefined)	6	-2	-15	-7	4158	-13	-0.3
COc1cc2c(cc1OC)C(c1ccccc1N)=NCC2	7	14	-12	16	/	-3	4.9
CCC(C)C(NC(=O)NCc1cccc(OC)c1)C(=O)OC (centres undefined)	/	-5	/	5	/	5	4.7
Cc1ccc(C)c(N2CCN(C(=O)CCS(=O)(=O)c3ccc4c(c3)NC(=O)CO4)CC2)c1	4	12	3	3	4437	1	3.3
O=C1NNC(=O)C1c1ccccc1	-6	10	-19	10	4019	-1	3.7
O=C(CSc1nc2ccc(Cl)cc2[nH]1)NCCc1ccc(Cl)cc1	-4	-16	13	-9	2347	-7	1.4
CSCC(C)N1CCC(n2nccc2NC(=O)CCCc2ccccc2)CC1 (centres undefined)	12	/	-17	/	8612	/	/
COc1ccc(-n2c(SCC(=O)Nc3ccc4c(c3)OCO4)nc3c(c2=O)SCC3)cc1	1	11	-5	3	5498	0	11
NC(=O)C1CCN(C(=O)CCSc2ccc(Cl)cc2)CC1	-4	-9	-11	-2	2136	2	-3.0
CC1(C)CC(c2nc(-c3ccc(Cl)cc3)cs2)CCS1 (centres undefined)	-8	-2	-23	/	2850	/	-11
COc1ccc(C(=O)N/C(=C\c2cn(C)c3ccccc23)C(=O)N2CCN(C)CC2)cc1	1	0	-1	-8	5649	2	0.2
CC(=O)Oc1ccc2ccccc2c1C(NC(=O)Cc1ccccc1)c1ccccc1Cl (centres undefined)	-1	4	-25	5	10132	-6	-7.4
CCOC(=O)C(NC(=O)c1ccc(Cl)cc1Cl)(Nc1ccc(C)cc1)C(F)(F)F (centres undefined)	0	6	-16	0	6568	0	8.1
CC1=C(C(=O)OC(C)C)C(c2cccs2)n2ncnc2N1 (centres undefined)	-5	4	-20	6	4305	8	-7.0
O=C(CCCc1ccccc1)N=C1SC2CS(=O)(=O)CC2N1c1ccccc1 (centres undefined)	0	5	-13	3	4342	-5	2.2
Cc1cc(-c2ccccc2)nc2oc(C(=O)NN)c(N)c12	5	-13	72*	-2	/	-3	5.2
CCN(CC)CCN(C(=O)C1=COCCO1)c1nc2ccc(C)cc2s1	-3	-1	-11	-3	4763	-2	1.4
CCOC(=O)c1c(-c2ccc(OC)cc2)csc1NC(=O)CNCc1ccco1	7	4	-34	-1	8625	5	-0.5
O=C(Cn1cncn1)NCc1cccc(OC(F)F)c1	-5	1	-14	9	2672	9	1.7
S=c1[nH]nc(-c2ccc(Cl)cc2Cl)n1Cc1ccccc1	-22	5	-17	15	2133	6	8.0
CCCCOc1ccc(C(=O)NCC(=O)NCCOc2ccccc2OC)cc1	/	3	-12	8	3867	-2	-1.2
C(/C=C/c1ccccc1)=Nn1cnnc1	/	0	/	3	/	-10	1.6
c1ccc2c(c1)CCN(c1nc3cc4c(cc3s1)OCCO4)C2	22	65	50	23	3806	20	1.6
CCN(Cc1ccncc1)C(=O)c1cc(COc2ccc(OC)cc2Cl)on1	11	10	-59	3	4915	-7	3.9
COc1ccc(C(=O)N2CCc3cc(OC)c(OC)cc3C2c2ccc(OC)c(OC)c2)cc1OC (centres undefined)	2	2	-8	3	3597	6	2.6
O=C(CC=NOCc1c(Cl)cccc1Cl)c1ccccc1	/	18	/	5	/	7	6.3
O=C1C=CC(=O)N1c1ccc(Nc2ccccc2)cc1	/	0	-9	3	2820	0	1.3
Cc1cccc2sc(NC(=O)CSc3cn[nH]n3)nc12	-7	-2	-17	13	3709	5	3.5
CC1CCN(S(=O)(=O)c2cccc(-c3nnc(-c4cccnc4)o3)c2)CC1	-7	-1	-4	7	3713	8	6.7
CCn1c(=NC(=O)CS(=O)(=O)c2ccccc2)sc2cccc(OC)c21	10	2	-18	10	?	5	9.8
Cn1c(NCc2c[nH]c3ccccc23)nc2ccccc21	-2	1	-117	-18	4063	7	-0.1
Cc1ccc2c(c1)N(C(=O)CCC(=O)NCCCN(C)Cc1ccccc1)CCO2	5	-5	-17	3	6185	-2	2.7
CC(C)(C)NS(=O)(=O)c1ccc(NC(=S)NC(=O)C2CC2)cc1	-14	13	4	3	6288	8	6.5
CCOC(=O)c1ccccc1NC(=O)c1ccc(F)cc1	14	6	-5	3	8664	1	6.0
C/C(=N\Nc1cccc(C(F)(F)F)c1)c1ccc(O)cc1	-2	/	-47	/	4024	/	/
COC(=O)NNC(=O)COc1ccc2ccccc2c1Br	-2	1	-1	7	2499	5	5.0
Nc1ccccc1C(=O)N/N=C1\C2CN3CCN(C2)CC1(c1ccccc1)C3	3	/	-16	/	9579	/	/
CCOc1ccc(C(=O)NCC(=O)Nc2ncccc2C)cc1OCC	-4	2	12	-7	?	3	2.4
Cc1ccc(SCCN2C(=O)NC(C)(C)C2=O)cc1	-16	-1	-9	8	15704	23	2.1
CCOC(=O)c1c(SCC(=O)Nc2nc(C)cs2)nc(=O)[nH]c1C	-4	5	-1	-1	6506	9	-2.0
Cc1c(C(=O)N2CCC(C)CC2)oc2ccc3c(c12)C(O)CC1(CCCCC1)O3 (centres undefined)	-4	-11	-4	-3	5609	-1	1.2
Cc1ccnc(NC(=O)c2ccccc2NC(=O)c2ccccc2)c1	7	6	/	11	3694	15	4.4
Cc1ccc(NC(=O)COC(=O)c2ccc(-n3nc(C)cc3C)cc2)c(F)c1	/	7	/	7	/	-3	5.0
COc1ccc(NC(=S)NNC(=O)c2ccccc2OC(F)F)cc1	31	1	-36	4	11531	2	2.6
CCn1c(SCC(=O)N2CCCC2)nc2c1c(=O)n(C)c(=O)n2C	-2	-3	-9	-3	11131	1	-0.3
COc1cccc(CNC(C)C(=O)Nc2ccc3c(c2)OCCO3)c1 (centres undefined)	2	-4	-16	-7	4385	-1	6.0
COc1ccc(-c2nn(-c3ccccc3)cc2C(=O)NCC2CCCO2)cc1 (centres undefined)	3	0	-12	13	6091	-2	2.4
O=S(=O)(N/N=C/c1cccnc1)c1ccc(Cl)c(Cl)c1	-10	/	-14	/	4438	/	/

The list continues.
SMILES	BJeLR lethal	Sa ugtP lethal	PrP 5UTR inh	Mtb hypoxia inh	Bead autofluor	Mtb hypoxia inh growth	RN4220 kill
COc1cccc2cc(-c3nnc(-c4ccccc4)o3)c(=O)oc12	0	7	-29	13	1994	13	4.8
O=C(O)[C@]1(S(=O)(=O)c2ccccc2)CC2ON=C(c3cccc(Br)c3)C2C1 (some centres undefined)	/	4	/	2	/	8	4.9
Cc1nc(-c2ccccc2)nc2[nH]ccc(=O)c12	-6	-16	-42	9	9733	5	4.9
COC(=O)Cc1ccc(N(Cc2ccccc2F)S(=O)(=O)c2ccc(Cl)cc2)cc1	-11	18	-23	-5	2462	-3	3.8
CC(NC(=O)C1CC=CCC1C(=O)O)C1CC2CCC1C2 (centres undefined)	-13	-7	-8	1	4439	1	1.6
Cc1ccc(CNC(=O)CCCOc2cc(=O)n(C)c3ccccc23)o1	2	5	-11	7	6564	15	3.7

Source: PubChem (several laboratories)
